GIV-Gai inh: inhibitors of GIV GBA-motif binding to rat Galpha-i3 | P08753 | Galpha-i3/FITC-GIV peptide fluorescence polarization, 90 min; active compounds read low; scaled: aluminum fluoride 0%, vehicle 100% | percent of control (FP), % (no concentration beside the values) | hit rate 0.42% among 210,000 | AID 1224905;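 active means replicate mean at 85% of control or lower, very high polarization wells dropped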;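 further: wells of about 15 µL received 100 nL stock; the first replicate is given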
Target sequence (P08753 whole entry, looked up): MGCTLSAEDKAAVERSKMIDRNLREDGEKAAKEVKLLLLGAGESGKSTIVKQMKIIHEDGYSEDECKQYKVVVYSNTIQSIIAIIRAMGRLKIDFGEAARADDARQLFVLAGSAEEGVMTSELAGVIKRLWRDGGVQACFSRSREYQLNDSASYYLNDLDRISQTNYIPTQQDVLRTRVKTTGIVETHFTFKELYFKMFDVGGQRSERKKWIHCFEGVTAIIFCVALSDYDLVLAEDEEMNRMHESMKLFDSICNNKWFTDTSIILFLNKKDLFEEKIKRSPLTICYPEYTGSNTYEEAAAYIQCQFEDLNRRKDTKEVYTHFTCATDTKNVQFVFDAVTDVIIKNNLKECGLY
Sa growth inh: blocks Staphylococcus aureus growth | AID 720641 | hit rate 0.53% among 170,000 | relative growth, % (no concentration beside the values) | S. aureus RN4220 growth, OD600, 20 h, 42 °C; active compounds read low;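 active means growth at 42 °C up to 50% and 20 or more points under that at 30 °C, or under 10% at both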;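 further: 300 nL library stock went into each well; scaled to the means of positive and negative controls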
HCMV NEC inh: disrupts HCMV UL50-UL53 complex binding; HTRF UL50-UL53 interaction, normalized percent inhibition; inhibition, % (test concentration not listed); hit rate 0.15% among 190,000; AID 1918969;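 active means both replicates at 50% or more, plus weaker picks with an unusually low signal ratio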;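 further: stock transfer was 100 nL into about 20 µL; 0% = negative control wells and 100% = wells with untagged competitor protein; inactives centre near -12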
Sa growth inh second temp: further read-out of Sa growth inh, marked with its call; relative growth, %; measured here: growth at 30 °C;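 optical density after 20 h as mean of two plates; 100% = untreated growth and lower means inhibition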
Starred values were filed as active, the others as inactive; . = no result given. Compounds were not picked by outcome. Share with any hit: about 0.85%.

A first look:
| SMILES | GIV-Gai inh | Sa growth inh | Sa growth inh second temp | HCMV NEC inh |
| --- | --- | --- | --- | --- |
| FC(F)(F)C(Oc1nc(N2CCCCC2)nc(N2CCOCC2)n1)C(F)(F)F | 100 | . | . | -12 |
| Cc1noc2ncn(CC(=O)N3CCCC(C)C3)c(=O)c12 (stereo unspecified) | 99 | . | . | -8 |
| O=C(NCCC1=CCCCC1)C1CCN(C(=O)c2cc3sccc3n2Cc2ccc(F)cc2)CC1 | 107 | 111 | 85 | . |
| CCCn1c(C)cc(C(=O)Cn2ncc(Cl)c(Cl)c2=O)c1C | . | 110 | 96 | -44 |
| CCOC(=O)CN(C1=NS(=O)(=O)c2ccccc21)c1ccccc1 | . | 111 | 103 | 4 |

Main list, previewed entries included:
| SMILES | GIV-Gai inh | Sa growth inh | Sa growth inh second temp | HCMV NEC inh |
| --- | --- | --- | --- | --- |
| FC(F)(F)C(Oc1nc(N2CCCCC2)nc(N2CCOCC2)n1)C(F)(F)F | 100 | . | . | -12 |
| Cc1noc2ncn(CC(=O)N3CCCC(C)C3)c(=O)c12 (stereo unspecified) | 99 | . | . | -8 |
| O=C(NCCC1=CCCCC1)C1CCN(C(=O)c2cc3sccc3n2Cc2ccc(F)cc2)CC1 | 107 | 111 | 85 | . |
| CCCn1c(C)cc(C(=O)Cn2ncc(Cl)c(Cl)c2=O)c1C | . | 110 | 96 | -44 |
| CCOC(=O)CN(C1=NS(=O)(=O)c2ccccc21)c1ccccc1 | . | 111 | 103 | 4 |
| Cc1ccc(NC(=O)Cn2nnc(C(=O)O)c2C(=O)O)cc1 | 101 | . | . | -3 |
| O=C(c1ccccc1)c1ccc2c3c(cccc13)CC2 | 106 | 107 | 88 | . |
| Cn1cc(C(=O)Nc2cccc(Cl)c2)c2[nH]c(=O)n(-c3ccccc3)c(=O)c21 | 106 | . | . | -35 |
| Cc1cc(C)cc(N2C(=O)CN(CC(C)C)[C@H]3CS(=O)(=O)C[C@H]32)c1 | 102 | . | . | -18 |
| O=C(CSc1ccccc1C(=O)Nc1ccc(-n2cnnn2)cc1)NCc1ccco1 | . | 68 | 85 | -27 |
| c1ccc(CN2CCC3(CCCc4ccccc43)CC2)cc1 | 100 | . | . | 14 |
| CC1CN(C(=O)CCC(=O)N(C)Cc2ccccc2)c2ccccc2O1 (stereo unspecified) | 106 | 102 | 86 | . |
| COc1ccc(Br)cc1CNC(=O)CN1C(=O)CSc2ccc(S(=O)(=O)N3CCOCC3)cc21 | 103 | 113 | 77 | . |
| COc1cccc(NC(=O)NCCn2c(-c3ccc(F)cc3)nc3cccnc32)c1 | 107 | . | . | -15 |
| CC(=O)OCc1cnc(C)c2oc(=O)c(C(=O)Nc3ccc(F)cc3C)cc12 | 103 | 111 | 102 | . |
| CCOC(=O)/C=C1\SCC(=O)N1CCOc1ccccc1C#N | . | 96 | 93 | -28 |
| c1cnc2c(c1)ccc1cccnc12 | 107 | . | . | -10 |
| CCN(CC)S(=O)(=O)c1ccc(N2CC(C(=O)N3CCCc4ccccc43)CC2=O)cc1 (stereo unspecified) | . | 77 | 90 | -23 |
| Cc1cccc(C(=O)c2c(N3CCOCC3)[nH]c(=O)c3ccccc23)c1 | 99 | 97 | 90 | . |
| O=C(CCN1C(=O)/C(=C/c2ccc(F)cc2)SC1=S)Nc1cc([N+](=O)[O-])ccc1O | 111 | . | . | -20 |
| Cc1cc2nc3s/c(=C\c4ccc(C(C)C)cc4)c(=O)n3c2cc1C | 104 | 107 | 86 | . |
| C=CCn1cc(C(=O)NC2CCCC2)c(=O)c2cc(S(=O)(=O)N(CC)CC)ccc21 | 108 | 102 | 97 | . |
| COc1cc(CO)cc(Br)c1OCC(=O)O | 101 | 95 | 85 | -12 |
| CCN(CC)c1ccc(C(=O)NCCO)cc1 | . | 108 | 89 | -23 |
| CC1CCCCN1S(=O)(=O)c1ccc(C(=O)Nc2cccc(-c3nc4ccccc4[nH]3)c2)cc1 (stereo unspecified) | 103 | 95 | 81 | . |
| CCOC(=O)C1CCN(/C(C)=C\C(=O)C(F)(F)F)CC1 | . | 77 | 87 | -17 |
| CCc1ccc(NC(=O)NCC2CCN(c3ccc(OC)cc3)C2)cc1 (stereo unspecified) | 108 | 114 | 98 | -16 |
| CC(C)N(C(=O)CSCc1ccc(Cl)cc1)c1ccccc1 | . | 82 | 100 | 2 |
| Cc1oc2ncn3nc(-c4ccncc4)nc3c2c1C | 106 | 100 | 89 | -25 |
| COc1ccc(CNC(=O)c2ccc(NC(=O)c3nnc(C4CCCCC4)s3)cc2)cc1 | 97 | . | . | -10 |
| Cc1ccc(S(=O)(=O)Nc2nc3ccccc3nc2N2CC(C)OC(C)C2)cc1 (stereo unspecified) | . | 108 | 90 | -29 |
| COc1ccc2oc(C)c(C(=O)Nc3ccccc3)c2c1 | 111 | . | . | -8 |
| COC(=O)c1c(C)sc(-c2c(-c3cccc(Cl)c3)[nH]c3c2c(=O)[nH]c(=O)n3C)c1O | 238 | 87 | 82 | 2 |
| Cc1ccc(-n2c(SC3CCCC3=O)nnc2-c2ccncc2)cc1C (stereo unspecified) | . | 76 | 95 | -50 |
| COC(=O)c1sc(N2C(=O)c3oc4ccc(C)cc4c(=O)c3C2c2ccc(OC)cc2)nc1C (stereo unspecified) | 103 | 106 | 102 | 17 |
| Cc1cc(Nc2cnn(-c3nc4ccccc4o3)c(=O)c2Cl)ccc1Br | 112 | 98 | 89 | . |
| CCOc1ccccc1N1C(=O)CC(Nc2ccccc2)C1=O (stereo unspecified) | 101 | 90 | 98 | 7 |
| Cc1ccc(/C=C/c2onc3c(=O)[nH]nc(C)c23)cc1 | 101 | 77 | 83 | -61 |
| Cc1cc(C)nc(NS(=O)(=O)c2ccc(Nc3nc(-c4cccc([N+](=O)[O-])c4)cs3)cc2)n1 | 109 | . | . | -29 |
| Cc1nc(-c2ccc(F)cc2)sc1CCNC(=O)CC(C)C | 103 | . | . | -7 |

Limited to HCMV NEC inh and Sa growth inh second temp, for 5 of the compounds above:
| SMILES | HCMV NEC inh | Sa growth inh second temp |
| --- | --- | --- |
| O=C(NCCC1=CCCCC1)C1CCN(C(=O)c2cc3sccc3n2Cc2ccc(F)cc2)CC1 | . | 85 |
| CCCn1c(C)cc(C(=O)Cn2ncc(Cl)c(Cl)c2=O)c1C | -44 | 96 |
| CCOC(=O)CN(C1=NS(=O)(=O)c2ccccc21)c1ccccc1 | 4 | 103 |
| Cc1ccc(NC(=O)Cn2nnc(C(=O)O)c2C(=O)O)cc1 | -3 | . |
| O=C(c1ccccc1)c1ccc2c3c(cccc13)CC2 | . | 88 |

(more compounds)
| SMILES | GIV-Gai inh | Sa growth inh | Sa growth inh second temp | HCMV NEC inh |
| --- | --- | --- | --- | --- |
| O=C(COc1ccccc1O)c1ccccc1 | . | 132 | 94 | -7 |
| C=CCNc1ncnc2c1cnn2-c1cccc(Cl)c1 | 99 | 123 | 103 | 8 |
| Cc1ccc(NC(C)C(=O)Nc2cccc(C(F)(F)F)c2)cc1 (stereo unspecified) | . | 90 | 55 | -24 |
| COc1cccc(C2N(c3ccccc3)C(=O)N3CCCN23)c1 (stereo unspecified) | 97 | 92 | 106 | 4 |
| O=C(c1cccc(C(=O)N2CCCCC2)c1F)N1CCCCC1 | 103 | 84 | 87 | -15 |
| Cn1ccc2c(OCC(N)=O)cccc2c1=O | 106 | 95 | 86 | -24 |
| COc1ccc(Nc2[nH]nc(NC(=O)COc3ccc(Cl)cc3)c2C#N)cc1 | . | 55 | 75 | -16 |
| COC(=O)Cc1nc(NS(=O)(=O)c2cccc(C)c2)sc1C | 108 | 145 | 97 | 5 |
| N#Cc1ccc(COC(=O)CC2Oc3ccccc3NC2=O)cc1 (stereo unspecified) | . | 77 | 82 | -30 |
| CC1(C)CC2=NN(c3ccccc3)P(=O)(N3CCCCC3)C2=C(N2CCOCC2)C1 (stereo unspecified) | . | 96 | 97 | -18 |
| CC(=O)Nc1ccccc1-c1ccc(C)o1 | . | 84 | 89 | 0 |
| CCn1c2c(c(=O)n3ncc(C(=O)Nc4cc(Cl)ccc4C)c13)CN(Cc1ccc(OC)cc1)CC2 | 101 | 86 | 82 | . |
| COc1ccccc1NC(=S)N1CCCCC1CO (stereo unspecified) | . | 89 | 90 | -4 |
| CCOC(=O)c1c(NC(C)=O)c2c3c(sc2n1CC(=O)Nc1ccc(C)cc1)CCCC3 | 109 | . | . | 9 |
| COc1ccc(N2CCN(C(=O)CCS(=O)(=O)c3cc4c(cc3Cl)NC(=O)CO4)CC2)cc1 | 103 | 131 | 87 | . |
| CCOC(=O)N1CCN(CC(=O)Nc2cc(C)nn2-c2nc3ccccc3s2)CC1 | . | 85 | 88 | -8 |
| CN1CCN(C(=O)c2nn3c(c2Cl)NC(c2ccc(Br)cc2)CC3C(F)(F)F)CC1 (stereo unspecified) | 93 | . | . | -26 |
| O=C(NCc1ccco1)NC(=O)c1ccc(-c2csnn2)cc1 | 101 | 99 | 87 | . |
| CC(C)(CSc1nncn1/N=C/c1ccco1)NS(=O)(=O)c1ccc(Cl)cc1 | . | 100 | 89 | -41 |
| CCOC(=O)N1CCN(C(=O)CN(c2ccc(Cl)c(C(F)(F)F)c2)S(=O)(=O)c2ccccc2)CC1 | 100 | . | . | 0 |
| CCOC(Cn1c2ccccc2c2ccccc21)OCC | 100 | 91 | 96 | -23 |
| O=C1/C(=C/c2ccc(N3CCOCC3)cc2)CC/C1=C\c1ccc(N2CCOCC2)cc1 | 133 | 105 | 93 | . |
| Cc1ccc(Cn2c(=O)n(C3CCCC3)c(=O)c3ccccc32)c(C)c1 | 107 | 100 | 82 | -23 |
| CCn1c(C)nc2cc(C(=O)n3cc(C(=O)c4ccccc4O)cn3)ccc21 | . | 103 | 93 | 3 |
| Cc1ccc(Oc2ncccc2NC(=O)CC(CC(=O)O)c2ccccc2)c2c1CCC2 (stereo unspecified) | 98 | 94 | 77 | -25 |
| CCCCN(C)C(=O)c1noc2c1CCCCC2 | 103 | 98 | 97 | -16 |
| CN1CCCN(C(=O)C2CCCO2)CC1 (stereo unspecified) | 101 | 97 | 105 | -10 |
| CC(=O)N1CCN(C(=O)c2cncc(Br)c2)CC1 | . | 113 | 99 | 9 |
| O=C(CN1C(=O)CCc2cc(S(=O)(=O)N3CCCCC3)ccc21)NC1CC1 | 107 | . | . | -30 |
| Oc1cccc(N=Cc2ccc(N3CCOCC3)cc2)c1 | . | 81 | 85 | -29 |
| C=CCN(c1nc2nc(C)c(Cl)c(C)n2n1)S(=O)(=O)c1ccc(C)cc1 | 102 | . | . | 6 |
| O=C(C1CCCN(S(=O)(=O)c2ccc(Br)s2)C1)N1CCN(c2ccc(F)cc2)CC1 (stereo unspecified) | 105 | 86 | 32 | -10 |
| OCCN1CCN(CCSc2ccccc2)CC1 | 102 | 109 | 85 | -8 |
| O=C1CSCN1c1ccc(Oc2ccccc2)cc1 | 108 | . | . | -10 |
| CCn1c(=O)n(CC)c2cc(N3CCCCC3)c(NC(=O)NC3CCCC3)cc21 | 96 | . | . | -21 |
| Cc1cccc(-n2c(C)c(C)c3c(N)ncnc32)c1 | . | 93 | 77 | -29 |
| C(=N\n1cnnc1)/c1ccc(N(c2ccccc2)c2ccccc2)cc1 | . | 1.4* | 2.4* | -57 |
| CNC(=O)CSc1nnc(-c2ccc(C(C)(C)C)cc2)n1-c1ccccc1 | . | 99 | 85 | -22 |
| COc1ccc(C(=O)CN2CCC(N3CCCCC3)CC2)cc1 | 98 | 86 | 104 | 4 |
| CC(=O)N1CC(C(=O)O)Oc2ccc(Cl)cc21 (stereo unspecified) | 106 | 81 | 88 | -7 |
| Cc1ccc(Cc2nc3ccccc3nc2SCC(=O)Nc2cccc(C(F)(F)F)c2)cc1 | 96 | 78 | 92 | . |
| CS(=O)(=O)c1sc(C#N)c2c1C(=O)CCC2 | 109 | 0.4* | 0.7* | -108 |
| COc1ccccc1CNC(=O)c1ccc(CS(=O)(=O)c2ccccc2C)o1 | 108 | 108 | 86 | -8 |
| CCOC(=O)CSc1nc2ccccc2c(=O)n1CCN1CCOCC1 | 106 | 108 | 94 | . |
| CN1/C(=C\P(=O)(c2ccccc2)N2CCOCC2)C(C)(C)c2ccccc21 (stereo unspecified) | . | 104 | 90 | -31 |
| CCOC(=O)c1c(NC(C)=O)[nH]c2ccc(OC)cc12 | 105 | 99 | 95 | -21 |
| Cc1ccc(C(=O)Nc2ccc3[nH]cc(C#N)c3c2)cc1 | 108 | 100 | 104 | -7 |
| Cc1ccccc1C(=O)Nc1cnc2c(C)cccn2c1=O | 102 | . | . | -38 |
| COc1ccc2[nH]cc(CCNC(=O)c3ccc(NC(=O)c4nnc(C)s4)cc3)c2c1 | 101 | . | . | -30 |

Whole records as entered above. Order of screens: GIV-Gai inh	Sa growth inh	Sa growth inh second temp	HCMV NEC inh
Record of COc1ccc2[nH]cc(CCNC(=O)c3ccc(NC(=O)c4nnc(C)s4)cc3)c2c1 = 101	.	.	-30
Record of CS(=O)(=O)c1sc(C#N)c2c1C(=O)CCC2 = 109	0.4*	0.7*	-108

Screening data as filed in PubChem BioAssay.
